# High-throughput results from PubChem.
# KCNQ2 enhance: potentiators of rat KCNQ2 potassium channel; O88943; CHO-K1 KCNQ2, FluxOR thallium flux fluorescence; hits give high values; B-score at 10 µM; 0.54% of 310,000 active; AID 2239;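 active = fluorescence ratio B-score at least 3 SD of library B-scores, with initial fluorescence B-score within 3 SD, cut at about 5.3 in these data; same plate scores as AID 2156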;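 note: B-score of peak minus minimum over baseline fluorescence ratio after K+ and Tl+ stimulus; positive B-score means potentiation of KCNQ2 with more thallium influx and brighter signal; only the inactives scoring about 0 or higher are listed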
# Target sequence (O88943 whole entry, looked up): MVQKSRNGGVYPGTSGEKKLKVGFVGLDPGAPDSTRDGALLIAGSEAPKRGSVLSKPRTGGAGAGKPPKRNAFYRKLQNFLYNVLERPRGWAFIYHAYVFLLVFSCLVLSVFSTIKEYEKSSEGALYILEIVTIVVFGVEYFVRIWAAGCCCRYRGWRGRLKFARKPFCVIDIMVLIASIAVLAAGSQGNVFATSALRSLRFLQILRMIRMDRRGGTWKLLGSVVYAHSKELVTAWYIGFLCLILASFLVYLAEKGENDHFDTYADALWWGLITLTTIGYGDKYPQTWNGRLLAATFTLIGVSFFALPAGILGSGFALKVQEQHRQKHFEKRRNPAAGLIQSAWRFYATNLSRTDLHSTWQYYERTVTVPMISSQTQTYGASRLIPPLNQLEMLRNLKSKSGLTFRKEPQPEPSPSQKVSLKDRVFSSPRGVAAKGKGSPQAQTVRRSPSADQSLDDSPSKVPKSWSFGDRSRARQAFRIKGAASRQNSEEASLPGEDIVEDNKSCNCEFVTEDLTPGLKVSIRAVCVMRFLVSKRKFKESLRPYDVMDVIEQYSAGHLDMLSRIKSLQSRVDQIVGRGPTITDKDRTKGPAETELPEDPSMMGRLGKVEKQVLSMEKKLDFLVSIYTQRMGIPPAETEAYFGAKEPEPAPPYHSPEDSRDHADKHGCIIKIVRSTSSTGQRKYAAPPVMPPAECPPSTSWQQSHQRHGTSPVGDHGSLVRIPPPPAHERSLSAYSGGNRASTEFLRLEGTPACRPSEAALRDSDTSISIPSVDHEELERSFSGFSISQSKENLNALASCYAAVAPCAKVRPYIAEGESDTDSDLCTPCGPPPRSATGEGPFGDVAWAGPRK
# KCNQ2 enhance baseline: recorded beside KCNQ2 enhance, whose call it bears; B-score; compound at 10 µM; measured here: initial fluorescence intensity artifact check;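 brightness before thallium and not channel activity; 0 = typical well and far values either way flag optical interference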
# Active calls of the source: *; & = joins results of further samples.
SMILES,KCNQ2 enhance,KCNQ2 enhance baseline
O=C(O)c1ccc(C(=O)Nc2cccc3ccccc23)c(C(=O)O)c1,1.3,0.05
CCc1nnc(NC(=O)CSc2ccc(-c3ccccc3OC)nn2)s1,0.01,0.01
CS(=O)(=O)N(CC(=O)N1CCCC1)Cc1ccc(Cl)c(Cl)c1,0.61,1
COC(=O)c1ccc(N2CCOCC2)c(F)c1,1.02,0.66
O=C(N/N=C/c1c(F)cccc1Cl)C1CC1,1.3,1.48
CCN(CC)C(c1ccc(F)cc1)c1nnnn1CC1CCCO1 (stereo unspecified),0.05,-2.65
CC(CNC(=S)Nc1cc(F)cc(F)c1)CSc1ccc(Cl)cc1 (stereo unspecified),1.91,-0.2
Cc1cc(-c2ccccc2)nc2cc(C(N)=O)nn12,0.08,-1.64
COc1cccc(/C=N/NC(=O)c2nnn(-c3nonc3N)c2CN(C)c2ccccc2)c1,0.15,3.99
CC(CC(=O)Nc1ccc2c(c1)OCCO2)c1ccccc1 (stereo unspecified),1.71,-2.28
COc1ccc(NC(=S)Nc2ncccc2C)c(OC)c1,1.02,0.29
C#CC(CCN1CCCCC1)(OC)c1ccccc1 (stereo unspecified),1.02,-0.01
COC(=O)Nc1ccc(NC(C)=O)cc1,0.09,-0.4
Cc1noc(C)c1S(=O)(=O)N(C)CC(=O)Nc1ccc(F)cc1,0.14,-0.81
O=c1nc(-c2ccccc2Cl)c2cc(F)ccc2[nH]1,0.26,0.13
Cc1ccc(NC(=O)Cc2nc(CSc3nnc(-c4ccc5c(c4)OCO5)o3)cs2)cc1,0.66,3.63
C/C(=N\Nc1nc2ccccc2[nH]1)c1cccs1,0.06,0.13
CCN(CC)CCCNC(=O)COc1ccc2oc3c(c2c1)CCCC3,0.71,-0.62
O=C(Nc1nonc1-c1ccc(Cl)cc1)c1ccco1,1.97,-4.61
CN1C(=O)Cc2cc(S(=O)(=O)NCc3cccs3)ccc21,0.58,-0.69
O=C(CN1C(=O)NC2(CCCCC2)C1=O)NCCc1c[nH]c2ccccc12,0.67,-0.38
COC(=O)CSc1nnc(CSc2nc(C)cc(C)n2)o1,1.57,-0.78
Cc1ccc(NC(=O)COC(=O)CCC(=O)c2ccc(C(C)(C)C)cc2)c([N+](=O)[O-])c1,0.35,0.6
COc1cc(COc2ccc(-c3nnco3)cc2)ccc1OC(F)F,3.24,0.36
O=c1[nH]c(C2CCCN(S(=O)(=O)c3ccc(F)cc3)C2)nc2c1nnn2Cc1ccccc1 (stereo unspecified),0.71,0.25
CN(C)S(=O)(=O)c1cccc(NC(=O)Cc2ccc(-c3ccccc3)cc2)c1,1.13,-0.41
NS(=O)(=O)c1ccc(CCNC2CC(=O)N(Cc3ccccc3)C2=O)cc1 (stereo unspecified),0.02,1.61
O=C(NCC1CCCO1)C1CC(c2ccccc2Cl)=NO1 (stereo unspecified),0.63,0.37
C=CCC12C=C(OC)C(=O)OC(OC)(C1O)[C@H](c1ccc3c(c1)OCO3)[C@H]2C (stereo partly specified),0.15,1.58
COc1ccc(NC(=O)c2ccc(S(=O)(=O)N(C)C)cc2)cc1,1.54,-1.44
CN(C(=O)Cn1nc(Cl)ccc1=O)C1CCCN(Cc2ccccc2F)C1 (stereo unspecified),2.38,0.06
COc1ccc(OC)c(NC(=O)CCN2CCN(C)CC2)c1,1.6,0
Cc1cc(C(=O)Nc2ccccc2C(=O)O)ccc1NC(=O)COc1ccccc1Cl,0.26,0.55
Cc1nc(SCC(=O)N2CCCCC2)c2c(C)c(C)sc2n1,7.4*,1.84*
CN(C)CCCNC(=O)/C=C/c1ccc(OCc2c(F)cccc2Cl)cc1,2.01,0.02
CCOC(=O)C1CCN(C(=O)Cn2cc(C(=O)OC)c3ccccc32)CC1,0.56,-0.01
Cc1ccccc1COC(=O)CCC1=NS(=O)(=O)c2ccccc2N1,1.99,-0.36
COCc1ccc(C(=O)NC2CCCc3c2cnn3-c2cc(C)cc(C)c2)s1 (stereo unspecified),0.35,0.11
CN(C(=O)CSc1nc2ccc([N+](=O)[O-])cc2s1)C1CCS(=O)(=O)C1 (stereo unspecified),1.26,-1.02
CC(/C=N/n1c(COc2ccccc2)n[nH]c1=S)=C\c1ccco1,0.56,-2.05
Cc1ccc2oc(=O)cc(CN3CCN(C/C=C/c4ccccc4)CC3)c2c1,0.4,-0.34
CCOC(=O)c1cnc(SCC(=O)c2ccc3c(c2)OCCO3)nc1N,0.72,-0.4
Cc1c(NC(=O)/C(=C/c2cccs2)NC(=O)c2ccccc2)c(=O)n(-c2ccccc2)n1C,0.6,-0.68
CCN(CC)CCNC(=O)c1ccc(NC(=O)c2ccc(Cl)c(S(=O)(=O)N3CCCCCC3)c2)cc1,0.01,0.47
CCC1=NN(C(=O)c2ccccc2Br)C(O)(c2ccc(Br)cc2)C1 (stereo unspecified),13.7*,-2.37*
COc1ccccc1Oc1ccc(N2CC(C(=O)OCC(=O)c3ccc(F)cc3)CC2=O)cc1 (stereo unspecified),0.29,2.32
Cc1ccc(C(C)n2cc(C(=O)NCCN3CCN(C)CC3)nn2)cc1 (stereo unspecified),0.38,0.07
CS(=O)(=O)c1ccc(C(=O)OCC(=O)NC23CC4CC(CC(C4)C2)C3)cc1[N+](=O)[O-],0.09,1.25
O=C(COC(=O)c1ccco1)NCCNC(=O)COC(=O)c1ccco1,0.72,0.26
COc1ccc(C(OC(=O)c2ccco2)C(=O)NC2CCCC2)cc1OC (stereo unspecified),0.42,0.36
# (continued)
SMILES,KCNQ2 enhance,KCNQ2 enhance baseline
COc1ccc(NC(=S)NC(NC(C)=O)C(Cl)(Cl)Cl)c([N+](=O)[O-])c1 (stereo unspecified),0.34,-0.64
CC12CCC(=O)N1C(C(=O)NCCc1ccc(S(N)(=O)=O)cc1)CS2 (stereo unspecified),0.32,0.98
CSc1ccccc1-c1nnc(-c2ccc(Cl)c(Cl)c2)o1,1.01,-0.65
O=C(N/N=C/c1cccn1-c1ccc([N+](=O)[O-])cc1)c1cccnc1,0.05,-0.72
CCOCCCNC(=O)Cn1cnc2c(cnn2-c2ccc(C)c(C)c2)c1=O,0.22,1.46
CCC(OCC(O)CN1CCCCC1)c1ccccc1 (stereo unspecified),0.83,-0.96
Cc1ccc(S(=O)(=O)N2CCN(CCO)CC2)cc1-c1nnc2c3ccccc3c(C)nn12,1.33,3.11
COc1cc(C2CC(=O)c3cnc(NC(=O)c4ccco4)nc3C2)cc(OC)c1OC (stereo unspecified),0.19,0
CC(=O)c1cnc(Nc2cccc(Cl)c2Cl)s1,1.76,-1.22
NS(=O)(=O)c1ccc(NC(=O)CSc2ccccn2)cc1,0.63,0.54
CC1CCN(S(=O)(=O)c2ccc3c(c2)c(=O)c(C(=O)NCc2ccccc2Cl)cn3C)CC1,0.15,0.62
NCC(c1ccccc1)(c1ccccc1)c1ccccc1,1.11,-1.22
COc1cc(/C=N\NC(=O)c2c(C)nc3cc(C)ccn23)ccc1O,1.92,-1.22
Cc1cccc(NC(=O)CCC(=O)N/N=C/c2ccco2)c1C,0.26,1.33
Cc1nc(NS(=O)(=O)c2cccs2)c2c3c(sc2n1)CCC3,0.48,-0.01
O=C(c1ccccc1)N1CCc2[nH]nc(-c3ccccc3)c2C1,0.39,0.01
CC(=O)NC(c1ccc(Cl)cc1Cl)c1ccc2cccnc2c1O (stereo unspecified),1.81,0.09
CCN(CC(=O)Nc1c(F)cccc1F)C(=O)CN1c2cccc3cccc(c23)S1(=O)=O,0.89,-0.31
Cn1c(CO)cnc1S(=O)(=O)Cc1c(Cl)cccc1Cl,0.39,-1.5
CCC(CC)C(=O)Nc1cc(=O)n(C)c(=O)n1C,1.49,0.81
COc1ccc(Cl)cc1NC(=O)C/C(C)=N/NC(=O)COc1ccc(C)cc1,0.17,-0.89
Cc1ccc(OCc2cc(C(=O)N(C)CCc3ccccn3)no2)cc1C,0.4,-0.02
COc1ccc(OC)c(NC(=O)C2CC(C)=C(C)CC2C(=O)O)c1 (stereo unspecified),1.2,-0.01
Nc1nnc(SCc2ccccc2Cl)s1,2.63,-2.88
COc1ccccc1NC(=S)N1CCN(c2ncccn2)CC1,0.57,0.67
NC(=O)C1(N2CCCCC2)CCN(C(=O)c2ccc(C#CC3(O)CCCCC3)cc2)CC1,1.77,-0.2
COc1ccccc1-n1cnnc1SCC(=O)Nc1cccc(S(N)(=O)=O)c1,1.19,0.43
COc1ccc(CN2CC(=O)N(c3ccc(Cl)cc3)C2=S)cc1OC,2.01,-0.53
O=C(NNC(=O)c1ccc([N+](=O)[O-])cc1)c1ccc(F)cc1,0.78,1
O=C(N/N=C/c1ccc(Cl)cc1Cl)c1cccc(F)c1,0.19,0.04
CCOc1ccc(NC(=O)C2CCCN2C(=O)NC2CCCCC2)cc1 (stereo unspecified),2.06,2.06
COc1ccc(CCN(C)c2ccc(C(N)=O)cc2[N+](=O)[O-])cc1OC,0.36,-1.13
Cn1cc([N+](=O)[O-])c(C(=O)Nc2cc(Oc3ccccc3)cc([N+](=O)[O-])c2)n1,1.61,-0.15
C=CCSc1nc2c(c(=O)[nH]c(=O)n2C)n1CC,1.22,-0.96
Cc1cccc(NC(=O)c2nnn(-c3cccc(C(F)(F)F)c3)c2N)c1,0.39,0.5
CNS(=O)(=O)c1cccc2nsnc12,0.52,1.7
CC(=O)Nc1cc(C(F)(F)F)ccc1Oc1cccc(Br)c1,0.92,0.52
OCCC1CN(Cc2ccccc2-c2ccco2)CCN1C1CCCC1 (stereo unspecified),1.89,0.06
O=C(Cc1ccccc1)N/N=C/c1ccc(OCC(=O)Nc2ccccc2)cc1,1.44,-0.95
Cc1c(NC(=O)c2ccc(C(=O)Nc3c(C)n(C)n(-c4ccccc4)c3=O)cc2)c(=O)n(-c2ccccc2)n1C,1.18,0.89

# Reformatted with values under each structure: part of the list above.
# Every second line gives: KCNQ2 enhance	KCNQ2 enhance baseline
> COc1ccc(OC)c(NC(=O)C2CC(C)=C(C)CC2C(=O)O)c1 (stereo unspecified)
    1.2	-0.01
> Nc1nnc(SCc2ccccc2Cl)s1
    2.63	-2.88
> COc1ccccc1NC(=S)N1CCN(c2ncccn2)CC1
    0.57	0.67
> NC(=O)C1(N2CCCCC2)CCN(C(=O)c2ccc(C#CC3(O)CCCCC3)cc2)CC1
    1.77	-0.2
> COc1ccccc1-n1cnnc1SCC(=O)Nc1cccc(S(N)(=O)=O)c1
    1.19	0.43
> COc1ccc(CN2CC(=O)N(c3ccc(Cl)cc3)C2=S)cc1OC
    2.01	-0.53
> O=C(NNC(=O)c1ccc([N+](=O)[O-])cc1)c1ccc(F)cc1
    0.78	1
> O=C(N/N=C/c1ccc(Cl)cc1Cl)c1cccc(F)c1
    0.19	0.04
> CCOc1ccc(NC(=O)C2CCCN2C(=O)NC2CCCCC2)cc1 (stereo unspecified)
    2.06	2.06
> COc1ccc(CCN(C)c2ccc(C(N)=O)cc2[N+](=O)[O-])cc1OC
    0.36	-1.13
> Cn1cc([N+](=O)[O-])c(C(=O)Nc2cc(Oc3ccccc3)cc([N+](=O)[O-])c2)n1
    1.61	-0.15
> C=CCSc1nc2c(c(=O)[nH]c(=O)n2C)n1CC
    1.22	-0.96
> Cc1cccc(NC(=O)c2nnn(-c3cccc(C(F)(F)F)c3)c2N)c1
    0.39	0.5
> CNS(=O)(=O)c1cccc2nsnc12
    0.52	1.7
> CC(=O)Nc1cc(C(F)(F)F)ccc1Oc1cccc(Br)c1
    0.92	0.52

# (further entries)
SMILES,KCNQ2 enhance,KCNQ2 enhance baseline
O=C(OCC(=O)N1CCCC1)c1ccc(S(=O)(=O)N2CCOCC2)cc1,0.65,1.45
O=C(CSc1nc2ccccc2s1)Nc1ccc(Cl)c(S(=O)(=O)N2CCOCC2)c1,0.64,1.06
Cc1ccc(-n2ncc3c(N4CCCC4)ncnc32)c(C)c1,0.68,1.08
Cc1cc(C(=O)N/N=C/c2cc(Cl)cc([N+](=O)[O-])c2O)c2ccccc2n1,3.03,-1.89
COc1ccc(CCNC(=O)CN(C)S(=O)(=O)c2cccc3nsnc23)cc1OC,0.53,-0.24
NC(=O)CN1C(=O)NC(c2ccccc2)(c2ccccc2)C1=O,0.22,0.79
Cc1ccc(S(=O)(=O)CCC(=O)OCC(=O)Nc2cc(F)ccc2C)cc1,0.09,0.04
Cc1cc(OCC(=O)NNC(=O)c2cccnc2)cc(C)c1Cl,0.42,-0.15
CCCNC(=O)c1ccc(Cn2cc(-c3ccc(OC)cc3)nc2C(C)N)cc1 (stereo unspecified),1.22,0.37
COC(=O)C1=C(C)N=C2SCCC(=O)N2C1/C=C/c1ccccc1 (stereo unspecified),0.57,-0.05
C=CCN(CC=C)C(=O)Cn1cnc([N+](=O)[O-])n1,0.18,0.79
O=C(Nc1cccc(-n2cnnn2)c1)c1cc(Cl)nc(Cl)c1,0.46,-0.54
CCOC(=O)c1cc2c(nc1N)CC(C)(CC)OC2 (stereo unspecified),0.07,2.07
CCCOc1ccc(NC(=O)Cc2ccc(S(=O)(=O)N3CCOCC3)s2)cc1OCCC,4.74,0.01
Cc1ccc2[nH]c(C(=O)O)c(NC(=O)CN3CCN(c4cccc(C)c4C)CC3)c2c1,0.15,-2.12
Cn1cc(C(=O)NCc2ccccc2F)cn1,0.09,0.16
C=CCn1c(C#N)c(N)sc1=N,0.52,-1.02
COCCN(C(=O)C1=COCCO1)c1c(N)n(Cc2ccccc2)c(=O)[nH]c1=O,0.45,-0.05
Cc1ccc(S(=O)(=O)n2ccc3cccnc32)cc1,1.34,-0.01
CCC(=O)Nc1sc2c(c1C#N)CC(C)(C)NC2(C)C,0.04,-1.95
CCOCCCn1c(=S)[nH]c2cc3c(cc2c1=O)OCO3,0.03,0
CCCCn1c(N)c(N(CCOC)C(=O)COC(=O)c2cc(CC)c(C)s2)c(=O)[nH]c1=O,0.3,0.05
Cc1nccn1CC(=O)N/N=C/c1ccc(O)c(O)c1,0.44,-0.24
Cn1c([N+](=O)[O-])cnc1COC(N)=O,0.4,1.94
OCc1cc(C(O)CNCCCCCCOCCCCc2ccccc2)ccc1O (stereo unspecified),0.73&0.04,-0.94&3.19

# Only part of the results is shown; rates above refer to the full screens.
